# Screens: PubChem BioAssay, National Center for Advancing Translational Sciences (NCATS)
# TRPML1 ag: agonists of human TRPML1 channel | Q9GZU1 | TRPML1-expressing cells, Ca2+ dye fluorescence, FDSS; host cell line not named in the record; reference of the full effect not given here | activation, % (no concentration beside the values) | 0.12% of 410,000 active; in the data active = activation above about 50%; inconclusive = about 30% to 50%; inactive = below about 30%; note: 0% is about no effect; the text of the record puts the active cut at 80%
#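 Tet-induced TRPML1-DL cells, 1,500 per well, cultured overnight, were loaded with a no-wash Ca2+ dye for 45–90 min. Calcium fluorescence was recorded on the FDSS for 110 s after compound addition, before the EC80 agonist (4 uM 54-4) was added.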
# TRPML1 inh: human mucolipin-1 channel inhibition; TRPML1-inducible cells, Ca2+ dye fluorescence, FDSS; hits give low values; inhibition of EC80 agonist-evoked calcium signal; activity change, negative = inhibition, % (concentration not given with the values); 0.02% of 390,000 active; AID 624415; in the data active means activity change below about -50%; inconclusive means about -30% to -50%; inactive means above about -30%;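 note: stimulus is agonist 54-4 at its EC80 concentration; % is set by controls: 0 for no effect and ±100 for the full control effect; compound concentration not given in the record; the text of the record puts the active cut at -80%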
#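 Calcium fluorescence in TRPML1-DL cells induced overnight with Tet: a 110 s read after compound pin addition, then a 110 s antagonist read after challenge with 54-4 at 4 uM final (EC80).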
# TRPV1 PAM: enhances activation of the human vanilloid receptor TRPV1. Q8NER1. TRPV1-expressing cells, Fluo-8 calcium influx, capsaicin EC20 potentiation; host cell line not named in the record; control for the full effect not named in the record. potentiation, % at 8.33 µM. 0.02% of 320,000 active; active means potentiation above 80%; inconclusive means 30% to 80%; inactive means below 30%; note: 0% is about no effect
# Target sequence (Q8NER1 whole entry, looked up): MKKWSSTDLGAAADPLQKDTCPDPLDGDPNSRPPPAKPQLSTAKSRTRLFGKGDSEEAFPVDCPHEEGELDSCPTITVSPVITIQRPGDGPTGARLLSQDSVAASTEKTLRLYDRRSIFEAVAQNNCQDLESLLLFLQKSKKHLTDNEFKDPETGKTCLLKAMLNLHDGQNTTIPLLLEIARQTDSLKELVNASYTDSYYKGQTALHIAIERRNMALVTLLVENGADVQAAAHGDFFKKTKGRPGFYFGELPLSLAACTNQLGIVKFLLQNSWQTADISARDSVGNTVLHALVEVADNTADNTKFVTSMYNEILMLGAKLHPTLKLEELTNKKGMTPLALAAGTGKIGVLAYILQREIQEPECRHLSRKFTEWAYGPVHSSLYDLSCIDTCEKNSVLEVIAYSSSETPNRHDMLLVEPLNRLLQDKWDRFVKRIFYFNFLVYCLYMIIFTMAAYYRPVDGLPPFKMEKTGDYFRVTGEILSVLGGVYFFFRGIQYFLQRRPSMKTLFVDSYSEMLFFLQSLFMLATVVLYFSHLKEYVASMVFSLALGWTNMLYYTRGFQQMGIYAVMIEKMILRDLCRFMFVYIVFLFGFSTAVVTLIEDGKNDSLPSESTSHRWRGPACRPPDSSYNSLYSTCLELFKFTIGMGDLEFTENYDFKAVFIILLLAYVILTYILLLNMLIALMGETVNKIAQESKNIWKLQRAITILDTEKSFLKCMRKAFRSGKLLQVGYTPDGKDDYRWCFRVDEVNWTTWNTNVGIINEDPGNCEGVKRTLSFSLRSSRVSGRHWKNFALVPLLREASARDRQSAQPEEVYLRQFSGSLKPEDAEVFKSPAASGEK
#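 TRPV1-expressing cells were cultured overnight at 35.5C and loaded with Fluo-8 calcium dye for 40 to 90 min at room temperature. After a 10 s baseline, compound was added and calcium influx was read kinetically for 3 min (ex 480/em 520 nm).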
# Sfp inh: blocks B. subtilis Sfp PPTase activity; Q9F4F7; Biochemical Sfp PPTase activity, qHTS; Potency, µM, for the others: max response, negative = inhibition, most hits filed as inhibitors; 3.5% of 310,000 active; AID 1490; active = well fitted inhibition curve with a large enough effect; inconclusive = small, poorly fitted or top-dose-only effect, or another doubt; inactive = no such curve, though single readings can be large or run the other way;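 note: the enzyme is Sfp with the accession as filed and its product quenches rhodamine fluorescence; potency is the fitted concentration of half-maximal effect; 0% = enzyme reaction without inhibitor and -100% = no enzyme wells; top concentration of the series not given in the record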
#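 Reaction rates are the 30-min fluorescence difference (ex 525, em 598 nm) in wells containing 15 nM Sfp, 5 uM rhodamine-CoA and 12.5 uM BHQ-2-YbbR at pH 7.6 with 10 mM MgCl2.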
# Menin MLL FP FL: displaces fluorescein MLL peptide from human menin; 290,000 tested, under 10 active; FP activity change, % at 61.4 µM; Fluorescence polarization, fluorescein-MLL peptide displacement from menin; inconclusive = falling polarisation curve, or a change in total fluorescence; inactive = total fluorescence flat and polarisation flat or rising; no compound was filed as active; the % refers to the polarisation; negative = inhibition;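 note: % of control where 0% means no effect; inhibitors lower the polarisation; unlabelled MLL peptide was the positive control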
# PINK1 modulator: modulators of PINK1 expression | PINK1 immunofluorescence, high-content cytometry, 24 h | Potency, µM (top dose mostly 76.6 µM), inactives show at the top dose activation (PINK1 increase), actives largely listed as activators | 0.2% of 410,000 active | AID 624263; active = well fitted activation curve with a large enough effect; inconclusive = small, poorly fitted or top-dose-only effect; inactive = flat fitted curve, though single readings scatter; cell line not stated here;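 note: potency is the fitted concentration of half-maximal effect; % of control where 0% means no effect; nearly all actives have a fitted effect of over 65% in size; a mitochondrial uncoupler was the plate control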
#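 PINK1 protein level read as immunofluorescence by microplate cytometer in a fixed, stained stable cell line after 24 h exposure to five compound concentrations, with CCCP as control.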
# ClpP mod: qHTS Assay for Activators of ClpP. 1.9% of 340,000 active. AID 651965, 2013. purified B. subtilis ClpP, FRET peptide cleavage, 20 min. Potency, µM (top dose mostly 57.5 µM), for inactives: at the highest dose activity change, negative = active. ATP-dependent Clp protease proteolytic subunit (Bacillus subtilis (strain 168)), P80244; active = well fitted falling curve with a large enough effect; inconclusive = small, poorly fitted or top-dose-only effect; inactive = no such curve, though single readings can be large or run the other way; note: potency is the fitted concentration of half-maximal effect; the source files actives as falling curves though it sought activators and does not explain the sign; nearly all actives have a fitted effect of over 65% in size; many hits overshoot -100%
# Target sequence (P80244 whole entry, looked up): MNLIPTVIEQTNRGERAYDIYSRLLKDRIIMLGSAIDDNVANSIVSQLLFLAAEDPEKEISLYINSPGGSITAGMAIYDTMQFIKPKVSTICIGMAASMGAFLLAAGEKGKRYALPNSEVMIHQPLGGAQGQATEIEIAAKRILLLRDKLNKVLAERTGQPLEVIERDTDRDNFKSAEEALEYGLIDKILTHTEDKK
#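 ClpP 10 microg/mL final, pH 8 Tris/KCl buffer with BSA, glycerol, Tween-20; compound pinned in; FRET-FV substrate; RT 20 min; Ex320/Em430; ΔFRET vs ADEP 5.8 microM, DMSO, no enzyme.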
# The depositor's hits bear a star; u = inconclusive; x = not tested or not shown; & = joins results of further samples; [ ] = another dose, or the depositor's remark.
compound	Sfp inh	TRPML1 ag	TRPML1 inh	PINK1 modulator	TRPV1 PAM	ClpP mod	Menin MLL FP FL
Cc1c(Cl)cccc1-c1ccc(CNc2ccc3[nH]c(=O)[nH]c3c2)o1	x	-0.3	-19	-0.1%	x	8.6%	x
CCCOc1ccc(C(=O)Nc2cc3c(cc2N2CCCCC2)n(C)c(=O)n3C)cc1	x	-0.7	-2	1.2%	x	-1.9%	x
O=C(O/N=C(/c1ccccc1)c1ccncc1)c1ccc(F)cc1	10%	2.7	2	0.2%	1	x	0.9
COc1ccc(/C=N/NC(=O)CNC(=O)c2ccncc2)cc1OC	3%	0.1	26	-0.4%	28	x	-19
CCOC(=O)[C@]12CCCC=C1N(Cc1ccc3c(c1)OCO3)C(=O)[C@H](CC(=O)NCCc1ccccc1OC)C2	x	-0.7	x	1.6%	x	0.1%	x
O=C(Nc1ccc2nc(SCC(=O)N3CCCc4ccccc43)sc2c1)c1ccc(F)cc1	x	1.7	-6	-1.0%	x	28µM*	x
COC(=O)c1ccc(CNC(=O)c2sccc2-c2ccccc2)cc1	x	-0.4	-9	0.9%	x	-3.9%	x
COc1ccc(NC(=O)c2ccc(-c3ccc([N+](=O)[O-])cc3)o2)cc1OC	1%	0.0	-2	0.1%	3	-1.4%	5.8
C=CCn1c(=O)c2ccccc2n2c(SCC(=O)N3CCCc4ccccc43)nnc12	7%	0.7	5	1.1%	3	1.2%	1.3
CCc1ccc(-n2ccc(=O)c(C(=O)O)n2)cc1	10%	-0.2	-6	1.1%	-2	x	-0.8
COc1ccc(C)cc1N(C(=O)c1cccc(F)c1)c1nc2ccccc2s1	-9%	2.8	20	12%	-11	1.9%	2.9
COc1ccc(/C=N/n2c(C)nc3ccccc3c2=O)cc1	9%	-0.5	-2	2.2%	-26	x	-5.5
Cc1ccc2nc(COC(=O)c3cccnc3Cl)cc(=O)n2c1	x	-1.0	16	0.0%	x	4.0%	x
CCOc1ccc(-n2c(SCC(=O)Nc3ccccc3C)n[nH]c2=O)cc1	23%	0.6	2	-3.8%[38.3 µM]	4	-1.8%	-0.2
O=C(c1cc2c(ccc3ccccc32)o1)N1CCN(c2ncc(C(F)(F)F)cc2Cl)CC1	3%	-0.1	2	3.9%	11	-1.9%	0.0
COc1ccc2c(=O)cc(-c3cccnc3)oc2c1OC	24%	0.0	-11	5.2%	-6	x	-2.8
CCn1c(SCC(=O)NC2CCCc3ccccc32)nnc1-c1ccncc1 (stereo not drawn)	3%	1.3	1	-2.1%	3	-2.3%	0.3
CCn1c(=O)c(C(=O)NCCc2ccccc2)c(O)c2ccccc21	u	1.0	8	9.3%	7	-28%	-0.8
Cc1cc(O)c(C(c2cccc(F)c2)N2CCC(C)CC2)c(=O)n1Cc1ccco1 (stereo not drawn)	x	1.6	15	0.6%	x	-4.6%	x
CCC(NC(=O)Cn1cnc2c(=O)n(C)c(=O)n(C)c21)c1ccccc1 (stereo not drawn)	6%	-0.6	-16	1.8%	-2	-1.6%	3.6
O=C(c1ccc(F)cc1)n1nc(-c2cccnc2)nc1NCc1ccccc1	x	-0.4	-3	0.2%	x	185%	x
N#Cc1c(SCC(=O)O)nc(N2CCCCC2)c2c1CCCC2	11%	-0.6	2	-1.2%	19	-0.3%	1.6
COc1cccc(-n2cn[nH]c2=S)c1	22%	0.4	-4	2.2%	5	0.2%	1.4
CCOCCn1ccc2c(OCC(=O)Nc3cc(C)cc(C)c3)cccc2c1=O	x	0.6	18	0.6%	x	-22%	x
O=C(NC1(C(F)(F)F)NC(=O)N(C2CCCC2)C1=O)C1CC1 (stereo not drawn)	17%	-0.3	-5	1.1%	-1	-1.3%	3.4
COc1ccc(CCNC(=O)c2ccc3c(c2)OCO3)cc1	6%	1.2	18	-0.1%	-11	x	-3.4
Cc1cc(CN2CCC(n3nccc3NC(=O)c3ccccc3Cl)CC2)cc(C)c1O	8%	0.5	1	-0.7%	11	0.5%	x
Cc1ccc2c(CC(=O)OCC(=O)Nc3ccc(Cl)cn3)coc2c1	6%	-0.8	-6	-1.0%	-5	1.8%	u
COc1ccc(S(=O)(=O)N=C2C=C(C)C(=O)C(C)=C2)cc1	-2%	-0.5	14	0.1%[38.3 µM]	3	-0.8%	6.4
COCCCNC(=S)N1CCCN(c2nc3cc(C)ccc3cc2C#N)CC1	8%	-0.2	-5	-1.9%	-10	-25%	0.7
Cn1c(CNc2ccccc2)cc(=O)n(C)c1=O	1%	-0.4	9	1.1%[38.3 µM]	8	1.8%	4.4
Cc1cc(C(=O)COC(=O)c2ccc(N)c([N+](=O)[O-])c2)c(C)n1-c1ccc2c(c1)OCO2	0%	-0.8	2	-0.6%	9	-0.6%	0.5
O=C(NCCc1ccccc1)C1CCN(S(=O)(=O)c2ccc(-c3nn[nH]n3)cc2)CC1	6%	0.0	13	0.3%	-4	u	-0.7
CCOCCn1c(CN2CCCCC2)nc2c1c(=O)n(C)c(=O)n2C	5%	-0.6	4	1.4%	25	-2.4%	-3.5
Cc1cccc(CN2CCN(CC(=O)N3CCCC3)C2=O)c1	10%	-0.3	-13	-0.9%	-3	-0.4%	-1.6
CCCCOc1ccc(/C(O)=C2/C(=O)C(=O)N(CCN(C)C)C2c2ccc(O)c(OC)c2)cc1 (stereo not drawn)	-2%	0.1	10	1.1%[38.3 µM]	-7	1.4%	-1.4
C=CCN1C(=O)CSC1=Nc1ccc(O)cc1	2%	0.2	-4	-6.1%[38.3 µM]	2	1.8%	-0.4
CCCCn1c(=NC(=O)c2cccnc2)c(C(=O)OCC)cc2c(=O)n3ccccc3nc21	4%	1.4	8	2.3%	13	u	1.1
COC(=O)C1=CN(CC2CCCO2)C=C(C(=O)OC)C1c1cccc(O)c1 (stereo not drawn)	16%	-0.5	31	1.6%	5	x	-1.8
CCC(=O)N1CCc2cc(S(=O)(=O)NCCC(=O)Nc3cc(C)cc(C)c3)ccc21	13%	1.0	-12	-1.8%	8	1.0%	2.8
Oc1ccc2c(c1)C1CCCC1(N1CCOCC1)O2 (stereo not drawn)	50µM*	-0.1	1	-1.2%	5	0.2%	0.9
CCc1c(C(=O)Nc2ccccc2C(N)=O)csc1C	-10%	1.1	1	2.7%	0	-2.9%	x
O=S1(=O)c2ccccc2N(Cc2ccccc2Cl)c2ccccc21	x	0.8	11	4.4%	x	-4.3%	x
COc1cc([N+](=O)[O-])ccc1NC(=O)C1C2C=CC(C2)C1C(=O)O (stereo not drawn)	32µM*	-0.7	-17	0.4%	-18	2.1%	-2.2
CCCCOC(=O)CSc1nc(N)c(C#N)c(-c2ccc(OCC)cc2)c1C#N	6%	0.2	2	-0.4%	29	u	7.7
O=C(O)c1cc(NN=Nc2cccc(S(=O)(=O)O)c2)cc([N+](=O)[O-])c1	5%	-0.5	-3	2.5%	-11	1.1%	5.6
CC(CC(=O)Nc1nnc(C(C)(C)C)s1)c1ccccc1 (stereo not drawn)	50µM*	-0.7	-25	8.8%	15	-0.6%	1.5
Cc1ccc(-c2nc3c(cnn3-c3ccccc3)c(=O)n2-c2ccc(Cl)cc2)cc1	x	2.4	-9	0.5%	x	u	x
Cc1ccc(S(=O)(=O)N(C)c2ccc3sc(C)nc3c2)cc1	-1%	1.0	40	8.9%	-2	0.8%	0.9
CCOc1ccccc1N1Cc2ccccc2C1	7%	-0.3	7	-0.2%	-1	-5.2%	1.5
Cc1ccc([N+](=O)[O-])c(Oc2ncnc3c2oc2ccccc23)c1	x	1.3	6	-0.7%	x	1.5%	x
Cc1ccc(NCc2nc3ccccc3n2C)c(C)c1	9%	-0.9	-8	3.0%	-7	-2.6%	1.9
O=C(O)c1cccc(S(=O)(=O)NCC2COc3ccccc3O2)c1 (stereo not drawn)	x	-0.4	5	-0.5%	x	x	x
COc1cc(/C=C/c2nc(C#N)c(NC(C)c3ccccc3)o2)cc(OC)c1OC (stereo not drawn)	x	1.5	-9	0.6%	x	4.7%	x
Cc1ccc(CN2CCN(Cc3cnc(N4CCOCC4)s3)CC2CCO)o1 (stereo not drawn)	8%	0.2	-7	3.4%	2	1.2%	-0.9
CCOC(=O)N1CCN(C2=C(NS(=O)(=O)c3ccc(NC(C)=O)cc3)C(=O)c3ccccc3C2=O)CC1	3%	-0.3	-8	0.4%	8	30%	x
O=C(Cn1nc(C(=O)O)c2ccccc2c1=O)Nc1cc(Cl)cc(Cl)c1	u	1.2	-6	-0.4%	-21	-2.3%	-4.8
COc1cccc(C(=O)NCC(=O)N/N=C/c2ccc3c(c2)OCO3)c1	-2%	1.1	u	1.3%	-18	-13%	2.5
COC(=O)c1sc2cccc(F)c2c1S(=O)(=O)NCc1ccc(Cl)cc1	x	1.5	-15	0.9%	x	u	x
Cc1cn([C@H]2C[C@H](O)[C@@H](/C=C/C(=O)NCCc3cccs3)O2)c(=O)[nH]c1=O	x	-0.5	-7	-0.3%	x	0.2%	x

# Arranged by formula weight (rising): 3 of the compounds above
compound	Sfp inh	TRPML1 ag	TRPML1 inh	PINK1 modulator	TRPV1 PAM	ClpP mod	Menin MLL FP FL
C=CCN1C(=O)CSC1=Nc1ccc(O)cc1	2%	0.2	-4	-6.1%[38.3 µM]	2	1.8%	-0.4
CCn1c(=O)c(C(=O)NCCc2ccccc2)c(O)c2ccccc21	u	1.0	8	9.3%	7	-28%	-0.8
O=C(c1ccc(F)cc1)n1nc(-c2cccnc2)nc1NCc1ccccc1	x	-0.4	-3	0.2%	x	185%	x

# Additional compounds:
compound	Sfp inh	TRPML1 ag	TRPML1 inh	PINK1 modulator	TRPV1 PAM	ClpP mod	Menin MLL FP FL
O=[N+]([O-])c1cccc(S(=O)(=O)N2CCN(c3ccccn3)CC2)c1	17%	-0.3	-1	-0.5%	-13	-1.9%	-2.3
COc1ccc(CCNC(=O)CN(c2ccc(OC)c(OC)c2)S(=O)(=O)c2ccccc2)cc1OC	19%	1.0	14	-1.8%	7	-3.9%	x
COc1ccc(-c2csc3nc(-c4ccc(C)cc4)oc(=O)c23)cc1OC	-22%	-0.1&-0.4	-15&3	-0.2%&5.2%	19	-2.8%&-6.6%	1.6
COc1ccccc1N1CCN(C(=O)COc2cc(C)cc(C)c2)CC1	-2%	0.4	-1	0.6%	12	0.3%	-1.7
